Source: PubChem
Lassa entry inh: inhibitors of Lassa virus binding or cell entry; Potency, µM (series often up to 37.9 µM), without a hit: at the top dose activity change, negative = inhibition, most hits filed as inhibitors; Lassa virus pseudotype entry inhibition, cell reporter; control for the full effect not named in the record; AID 540256; 300,000 tested, 1.2% active; active means well fitted inhibition curve with a large enough effect; inconclusive means small, poorly fitted or top-dose-only effect, or effect the other way; inactive means flat fitted curve, though single readings scatter; tested in HEK293 cells; further: on the % scale 0 is the no-effect control and ±100 the full control effect; nearly all actives have a fitted effect of over 50% in size; luciferase read-out
MARV entry inh: inhibitors of Marburg virus binding or cell entry. Marburg virus pseudotyped entry inhibition, cell reporter; control for the full effect not named in the record; about a third of the inactives were read at about 46 µM. Potency, µM (highest dose often 37.8 µM), for the others: at the top dose activity change, negative = inhibition, actives largely listed as inhibitors. 300,000 tested, 1.8% active. AID 540276; active = well fitted inhibition curve with a large enough effect; inconclusive = small, poorly fitted or top-dose-only effect, or effect the other way; inactive = flat fitted curve, though single readings scatter; tested in HEK293 cells; about a fifth of its hits are not listed in these tables; further: on the % scale 0 is the no-effect control and ±100 the full control effect; luciferase read-out
SARS PLP yeast: inhibitors of SARS-CoV papain-like protease in yeast; Potency, µM (series often up to 32.9 µM), for the others: at the top dose activity, positive = growth rescue; 330,000 tested, 0.19% active; AID 485353; S. cerevisiae expressing SARS-CoV PLpro, growth rescue; control for the full effect not named in the record; active means well fitted rising curve with a large enough effect; inconclusive means small, poorly fitted or top-dose-only effect; inactive means no such curve, though single readings can be large or run the other way; further: 0% is about no effect; nearly all actives have a fitted effect of over 55% in size; growth read by luminescence after 48 h
Cruzain inh Det: blocks cruzain activity in presence of Triton detergent. purified cruzain, Z-FR-AMC fluorescence, 0.01% Triton. P25779. 200,000 tested, 0.43% active. Potency, µM, for inactives: max response, negative = inhibition, hits mostly inhibitors. AID 1478;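 further: plate controls were neutral wells for no effect and buffer without enzyme for full effect; nearly all actives have a fitted effect of over 40% in size; top concentration of the series not given in the record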
Target sequence (P25779 123-467 limits assumed): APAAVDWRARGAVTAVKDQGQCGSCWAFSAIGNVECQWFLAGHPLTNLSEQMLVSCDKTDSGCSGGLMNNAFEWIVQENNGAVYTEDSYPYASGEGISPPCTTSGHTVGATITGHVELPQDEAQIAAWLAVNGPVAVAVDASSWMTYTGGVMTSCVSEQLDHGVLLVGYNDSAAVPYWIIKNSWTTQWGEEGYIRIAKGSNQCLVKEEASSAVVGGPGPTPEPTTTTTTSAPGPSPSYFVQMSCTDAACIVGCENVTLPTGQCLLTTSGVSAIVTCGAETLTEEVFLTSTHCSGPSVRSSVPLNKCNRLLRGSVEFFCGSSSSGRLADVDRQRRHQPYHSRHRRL
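Detergent-containing arm of a paired screen for aggregation-based inhibition: 0.01% Triton X-100 present. Cruzain at 1.5 nM cleaved 2 uM Z-FR-AMC at pH 5.5 with 5 mM DTT; AMC fluorescence gain over 60 s measured activity.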
Cruzain inh noDet: cruzain (T. cruzi) inhibition without detergent. AID 1476. 200,000 tested, 2.3% active. Potency, µM, for the others: max response, negative = inhibition, most hits filed as inhibitors. purified cruzain, Z-FR-AMC fluorescence, no detergent;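 further: plate controls were enzyme without inhibitor for no effect and buffer without enzyme for full effect; nearly all actives have a fitted effect of over 40% in size; top concentration of the series not given in the record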
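Purified cruzain at 1.5 nM, pre-incubated 15 min with compound at room temperature in 100 mM sodium acetate pH 5.5, 5 mM DTT, 0.00005% Triton X-100. Reaction started with 2 uM Z-FR-AMC; AMC fluorescence increase over 60 s gives rate.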
NS1 inh: influenza NS1 inhibition | S. cerevisiae slowed by influenza A NS1, growth recovery by OD600 | Potency, µM (titrated, usually from 46.1 µM), without a hit: at the top dose activity, positive = more growth | 270,000 tested, 0.4% active; active means well fitted rising curve with a large enough effect; inconclusive means small, poorly fitted or top-dose-only effect; inactive means no such curve, though single readings can be large or run the other way; further: nearly all actives have a fitted effect of over 50% in size
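Read-out: OD600 growth recovery of NS1-expressing budding yeast. Cells grown overnight at 30C in -URA glucose medium, washed, resuspended and diluted 1:100 in 2% galactose assay medium, pH 6.0. Same strain lacking NS1 served as positive control.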
RE007 growth inh: less growth of the S. pombe RE007 Vpr strain. S. pombe RE007 Vpr strain, BacTiter-Glo ATP luminescence, 24 h; control for the full effect not named in the record. Potency, µM (top dose mostly 92.2 µM), inactives show top-dose activity change, negative = less growth. 360,000 tested, 0.21% active. AID 651644; active = well fitted falling curve with a large enough effect; inconclusive = small, poorly fitted or top-dose-only effect; inactive = no such curve, though single readings can be large or run the other way;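 further: on the % scale 0 is the no-effect control and ±100 the full control effect; nearly all actives have a fitted effect of over 50% in size; the assay follows cell death caused by Vpr and the record does not say whether a fall means rescue or toxicity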
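Fission yeast strain RE007, carrying one chromosomally integrated HIV-1 vpr copy, was seeded at OD 0.01 in PMG+AL medium with 23 nL pinned compound. After 24 h at 30 °C and 99% humidity, viability was read by BacTiter-Glo luminescence.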
2A StopGo: FMDV 2A StopGo reporter, luciferase signal; human cells with a luciferase reporter of 2A StopGo recoding; control for the full effect not named in the record; Potency, µM (top dose mostly 57.9 µM), without a hit: at the highest dose signal change, negative = less light; 410,000 tested, 1.2% active; AID 1159524; active = well fitted falling curve with a large enough effect; inconclusive = small, poorly fitted or top-dose-only effect; inactive = no such curve, though single readings can be large or run the other way; tested in HEK293T cells; further: on the % scale 0 is the no-effect control and ±100 the full control effect; nearly all actives have a fitted effect of over 45% in size; luciferase light after 4 h
An asterisk follows results filed as active; ? = inconclusive; . = no result given; & = joins results of further samples; [ ] = another dose, or the depositor's remark. Unless noted, the call rests on the fitted dose curve; in most records, active means well fitted curve in the direction sought with a large enough effect; inconclusive means small, poorly fitted or top-dose-only effect, or another doubt; inactive means no such curve, though single readings can be large; an effect the other way counts as inactive or inconclusive. Potency means the concentration at half of the fitted maximal effect.

The opening five entries as a preview:
SMILES	Lassa entry inh	MARV entry inh	SARS PLP yeast	Cruzain inh Det	Cruzain inh noDet	NS1 inh	RE007 growth inh	2A StopGo
COc1ccccc1O	.	.	-5.5%	0.7%&5.6%&5.5%	-4.9%&-2.4%&2.6%	23.6%	-3.6%[18.4 µM]	-1.9%
Cc1cccc(C(=O)NNC2=CC(=O)CC(C)(C)C2)c1O	9.6%	17.7%[46.1 µM]	0.7%	.	.	0.1%	-8.7%	25.4%
COc1cc(OC)c(OC)cc1CN1CCN(Cc2ccco2)CC1	-17.0%[46.1 µM]	8.7%[46.1 µM]	-0.2%	.	.	-8.5%	-4.6%	-4.9%
CC1CCc2[nH]c3ccc(C(=O)N(C)CC(=O)Nc4cccc(F)c4)cc3c2C1 (stereo not drawn)	?	?	0.5%	.	.	.	3.3%	-21.7%
CC1(C(=O)NCCCN2CCOCC2)Oc2cccnc2NC1=O (stereo not drawn)	-14.9%	.	1.4%	.	.	-2.7%	-0.2%	-16.5%

All compounds of this part, repeating the preview:
SMILES	Lassa entry inh	MARV entry inh	SARS PLP yeast	Cruzain inh Det	Cruzain inh noDet	NS1 inh	RE007 growth inh	2A StopGo
COc1ccccc1O	.	.	-5.5%	0.7%&5.6%&5.5%	-4.9%&-2.4%&2.6%	23.6%	-3.6%[18.4 µM]	-1.9%
Cc1cccc(C(=O)NNC2=CC(=O)CC(C)(C)C2)c1O	9.6%	17.7%[46.1 µM]	0.7%	.	.	0.1%	-8.7%	25.4%
COc1cc(OC)c(OC)cc1CN1CCN(Cc2ccco2)CC1	-17.0%[46.1 µM]	8.7%[46.1 µM]	-0.2%	.	.	-8.5%	-4.6%	-4.9%
CC1CCc2[nH]c3ccc(C(=O)N(C)CC(=O)Nc4cccc(F)c4)cc3c2C1 (stereo not drawn)	?	?	0.5%	.	.	.	3.3%	-21.7%
CC1(C(=O)NCCCN2CCOCC2)Oc2cccnc2NC1=O (stereo not drawn)	-14.9%	.	1.4%	.	.	-2.7%	-0.2%	-16.5%
Cc1ccc2nc(N/C(=N/S(=O)(=O)c3ccc(F)cc3)c3ccccc3)sc2c1	.	.	-8.7%	.	.	3.3%	-5.3%	30.8%[activator]
Cc1nn(CC(=O)N2CC(=O)Nc3ccccc32)c(C)c1[N+](=O)[O-]	-13.8%	24.8%[46.1 µM]	-0.5%	.	.	1.0%	-6.9%	-2.7%
Cc1ccc(NC(=O)c2ccc3[nH]c(=O)c(=O)[nH]c3c2)nc1	.	.	-2.5%	.	.	-1.2%	6.3%	22.0%
COc1cc(OC)c(C2SCCN2S(=O)(=O)c2ccc(F)cc2)cc1OC (stereo not drawn)	1.6%	-2.9%&-8.5%	5.7%	0.3%	21.6%	-8.6%	-4.0%	0.0%
CN(c1ccc(O)cc1)c1nc(-c2cccs2)cs1	-6.6%	1.0%[46.1 µM]	0.2%	.	.	-0.4%	?	0.2%
Cc1ccc(N(CC(=O)NC2CCCCC2)C(=O)CNC(=O)c2ccco2)cc1C	6.6%	-0.5%[46.1 µM]	0.5%	.	.	-9.8%	-5.3%	13.0%
O=C(Nc1ccc(Cl)c(C(F)(F)F)c1)N1CCCC(O)C1 (stereo not drawn)	14.9%	5.0%	-6.3%	1.0%	4.0%	-3.1%	-9.1%	-13.1%
O=C(c1cc([N+](=O)[O-])ccc1N1CCCCC1)N1CCc2ccccc21	?	4.47µM*	-19.2%	-9.5%	5.1%	13.4%	1.3%	-5.5%
CN1c2ccc(Cl)cc2-c2nc(SCC(=O)Nc3cc(F)ccc3F)ncc2S1(=O)=O	?	.	.	-7.0%	12.6µM*	.	.	-16.6%
Cc1ccc(C2=Nc3ccccc3N=C(C(Cl)Cl)C2)cc1	?	?	-30.0%	.	.	.	-21.1%	?
COc1ccc(C(=O)NC2CC2)cc1OC1CCN(C(C)CSC)CC1 (stereo not drawn)	.	.	-0.1%	.	.	-8.6%	-6.3%	4.1%
Cc1ccc(-c2nc3ccccc3c(=O)n2-c2cc(C)ccn2)cc1	-44.5%[14.3 µM]	21.0%	3.98µM*	0.5%	3.7%	6.2%	40.3%	23.8%
CC(=O)c1cc(C#N)c(SCc2ccc([N+](=O)[O-])cc2)nc1C	-13.5%[46.1 µM]	?	-0.6%	.	.	4.1%	-2.8%	-7.4%
C[C@@H](NC(=O)CN1C(=O)c2ccccc2S1(=O)=O)c1ccccc1	.	.	-4.4%	.	.	-5.8%	1.5%	-10.6%
O=C(/C=C/c1ccc(Cl)c(Cl)c1)NCCCn1ccnc1	7.9%[46.1 µM]	?	1.2%	.	.	5.7%	-4.3%	24.2%
O=c1[nH]c(=O)n(CCC2=CCCCC2)c(O)c1/C=N/Nc1ccccc1	?	4.7%	-2.4%	-2.9%	-0.1%	12.4%	248.9%	?
S=C(NCCCc1ccccc1)NCc1ccccc1	-26.6%[46.1 µM]	?	10.4%	.	.	-67.1%	-0.2%	27.6%
Cc1ccc(N=Cc2c(O)c3ccccc3oc2=O)cc1F	.	.	13.3%	.	.	23.9%	7.8%	30.5%[activator]
O=C(CSc1nc2ccc(NC(=O)C3CCCCC3)cc2s1)NCC1CCCO1 (stereo not drawn)	?	?	11.8%	-7.2%	11.1%	-24.0%	8.3%	-19.0%
Cc1ccc2nc(Cl)nc(-c3ccccc3)c2c1	-0.1%	-20.1%[46.1 µM]	1.3%	.	.	0.1%	7.6%	0.0%
COc1cccc(NC(=O)N2C3CCCC2CC(NC(=O)C(C)(C)C)C3)c1 (stereo not drawn)	.	.	15.4%	.	.	15.1%	-2.5%	-5.0%
O=C(NC1CCCC1)C(c1cccs1)N(CC1CCCO1)C(=O)Cc1cccs1 (stereo not drawn)	1.3%	-19.1%[46.1 µM]	-0.3%	1.0%	-2.6%	-0.7%	-0.3%	-4.6%
CCS(=O)(=O)N1Cc2ccccc2CC1C(=O)Nc1ccc(F)c(F)c1 (stereo not drawn)	-2.0%[46.1 µM]	-2.6%[46.1 µM]	0.4%	.	.	-0.9%	-1.2%	29.7%
COc1ccc(CNC(=O)COC(=O)c2ccc(Br)cc2)cc1	0.5%[46.1 µM]	-26.3%[46.1 µM]	2.0%	.	.	.	-3.2%	-13.0%
COC(=O)c1cc2occc2n1CC(=O)Nc1cc(OC)cc(OC)c1	-10.5%	8.2%	-1.1%	2.2%	0.5%	1.8%	7.8%	.
CCCN(CC(=O)Nc1ccc(Cl)cc1Cl)C(=O)/C=C/c1ccco1	?	?	10.3%	-2.9%	4.6%	-22.6%	4.0%	3.6%
Cn1c(Cn2cnc3ccccc32)nc2ccccc21	15.7%	5.2%&5.2%[46.1 µM]	5.6%	6.7%	-1.3%	-8.6%	1.0%	-9.9%
O=C(CCN1C(=O)c2ccccc2C1=O)Nc1cccc(S(=O)(=O)N2CCCCC2)c1	2.0%	-5.0%	4.2%	-4.4%	3.6%	2.8%	-20.5%[3.69 µM]	-23.5%
Cc1oc(-c2ccc(Cl)cc2)nc1CS(=O)CC(=O)NCCc1ccccc1 (stereo not drawn)	?	.	.	-4.8%	?	.	.	22.0%
CCOc1cccc(=O)c2c(C)oc(C)c12	13.6%	2.4%	7.8%	-3.3%	0.3%	-1.1%	-9.1%	.
Cc1nc2ccc([N+](=O)[O-])cc2c(=O)n1Cc1ccccc1Br	-9.5%	?	26.7%	.	.	2.1%	-3.3%	-22.6%
CN(CC(=O)Nc1ccc(F)cc1)C(=O)CSc1ncccn1	11.6%	1.9%	0.0%	.	.	.	3.0%	-4.8%
CCCCc1ccc(-c2ccc(C)cc2O)nc1	10.3µM*	?	5.9%	-5.6%	-10.7%	-14.2%	10.7%	-18.8%
NC(=O)C(C1=CCCCC1)c1ccccc1 (stereo not drawn)	1.1%[46.1 µM]	0.3%[46.1 µM]	.	.	.	.	7.5%	-16.3%
CCOCCCNC(=O)CS(=O)(=O)Cc1nc(-c2cccc(OC)c2)oc1C	19.9%	-15.0%&-15.0%	4.3%	1.2%	28.3%	-49.1%	-2.2%	0.0%
COc1ccc(/C=C/c2noc(-c3ccccc3OC(C)=O)n2)cc1	?	11.2µM*	-2.6%	.	.	-3.8%	-14.3%	-56.8%
Cc1ccc(C2=NS(=O)(=O)N(C)C(C(=O)NC(C)c3ccccc3)=C2)cc1 (stereo not drawn)	.	.	-1.1%	.	.	20.5%	10.3%	-18.1%
N#Cc1ccsc1NC(=O)CN1CCN(S(=O)(=O)c2cc(Cl)ccc2Cl)CC1	-19.7%	-26.5%&-26.5%	18.2%	-2.2%	-6.2%	2.3%	-11.9%	?
Cc1ccc(S(=O)(=O)NC(=O)Nc2c(C)n(C)n(-c3ccccc3)c2=O)cc1	3.9%	-3.8%	-2.8%	-0.5%	-5.8%	11.5%	-3.2%	-12.0%
O=C(Nc1ccnn1C1CCN(Cc2cc(Cl)ccc2O)CC1)C1CC1	.	.	?	.	.	9.2%	-4.6%	4.3%
COc1ccc2c(c1)[nH]c1c(=O)n(CCN3CCCC3)cnc12	13.0%	?	4.8%	0.3%	-1.4%	?	9.4%	-12.3%
COc1ccc(CN2CCN(C3CCSCC3)CC2CCO)c(C)c1C (stereo not drawn)	1.2%[46.1 µM]	?	1.5%	.	.	-1.5%	-23.7%	-11.6%
O=[N+]([O-])c1ccc(S(=O)(=O)N/N=C/c2cccs2)cc1	4.0%	15.9%	-3.2%	-5.1%	-0.1%	-2.8%	0.4%	67.3%[activator]
CCOC(=O)C1=C(C)NC(=O)C(C(N)=O)C1c1ccccc1 (stereo not drawn)	-5.4%	-6.1%	-0.5%	-4.9%	-3.1%	-2.7%	-7.6%	6.3%
S=c1[nH]nc(-c2cc3c(s2)-c2ccccc2CC3)o1	3.5%	19.0%	-22.3%	-25.6%	2.0%	-8.0%	?	3.1%
O=C(/C=C/Nc1ccc(S(=O)(=O)Nc2cnc3ccccc3n2)cc1)c1ccccc1	-9.3%	-27.5%[46.1 µM]	19.6%	.	.	0.1%	-5.8%	96.4%[activator]
